Ecoli growth: E. coli growth inhibition | Escherichia coli growth, OD600, 23 h; active compounds read low | OD600 absorbance (no concentration beside the values) | 330,000 tested, 0.21% active | AID 1053175;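 active = OD600 absorbance below the run mean of sample wells minus 3.6 SD, in any replicate, cut at about 0.56 in these data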;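 note: stock transfer was 300 nL into about 60 µL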
FGF22 binding: shifts melting point of recombinant human FGF22; Q9HCT0; recombinant FGF22 thermal shift, SYPRO orange fluorescence; percent of sucrose octasulfate shift, DMSO zero; calls only at 9.99 µM; 340,000 tested, 1.5% active; AID 651658;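 active = melting point raised past a set limit in the mean and every replicate; three in four hits are not shown here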
UCH37 inh: human UCH37 deubiquitinating enzyme inhibition | 330,000 tested, 0.33% active | purified proteasome/UCH37, Ub-AMC cleavage fluorescence | inhibition, % (no concentration beside the values) | Q9Y5K5;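 active = mean of two replicates above 20%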;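 note: 0% = compound-free wells with enzyme and 100% = wells lacking proteasome; stock transfer was 100 nL into about 20 µL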
Target sequence (Q9Y5K5 whole entry, looked up): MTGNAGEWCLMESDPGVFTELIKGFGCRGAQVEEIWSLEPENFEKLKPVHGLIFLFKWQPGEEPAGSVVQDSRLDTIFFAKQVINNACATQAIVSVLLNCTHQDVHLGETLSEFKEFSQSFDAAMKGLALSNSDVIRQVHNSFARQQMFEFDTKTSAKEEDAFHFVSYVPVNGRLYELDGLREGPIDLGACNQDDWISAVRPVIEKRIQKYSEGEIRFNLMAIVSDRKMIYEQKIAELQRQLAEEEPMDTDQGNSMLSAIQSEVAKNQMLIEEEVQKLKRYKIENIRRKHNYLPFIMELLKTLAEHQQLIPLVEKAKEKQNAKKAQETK
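assay system = human UCH37 enzyme supplied as purified proteasome complex | amount = proteasome at 0.15 nM in the dispensed enzyme solution | schedule = 30 min compound-proteasome preincubation then 25 min substrate reaction, room temperature | measured by = fluorescence, ex 355 nm, em 460 nm | benchmarks = no-proteasome wells (full inhibition) and compound-free wells (no inhibition)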
rRNA inh HTS: inhibitors of bacterial rRNA selective over humanized ribosomes; E. coli WT GFP vs humanized-ribosome RFP mutants, fluorescence, 24 h; active compounds read low; DMSO median 0, no signal -100; GFP signal change (wild-type ribosome), % (no concentration beside the values); 350,000 tested, 1.6% active; AID 720706;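 active = significant combined selectivity score with lowered wild-type GFP, culture density cut under 30%, mutant RFP and density less affected; inactive = any of these conditions unmet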; note: one replicate is shown; some compounds called inactive have numbers as strong as hits
ALR inh: inhibitors of human sulfhydryl oxidase ALR; inhibition, % (no concentration beside the values); 290,000 tested, 3.8% active; AID 485317; purified ALR, DTT oxidation, H2O2 HRP-luminol luminescence;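 active = mean and each replicate at 75% or more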;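 note: stock transfer was 7.5 nL into about 7.5 µL; 0% = neutral wells and 100% = wells with inactivated enzyme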
Target sequence (P55789 whole entry, looked up): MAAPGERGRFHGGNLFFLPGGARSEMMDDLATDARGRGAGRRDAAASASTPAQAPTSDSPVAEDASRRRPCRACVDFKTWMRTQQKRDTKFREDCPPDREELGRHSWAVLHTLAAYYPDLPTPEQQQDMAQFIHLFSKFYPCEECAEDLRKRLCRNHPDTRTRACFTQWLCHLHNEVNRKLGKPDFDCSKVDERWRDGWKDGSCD
B2AR ag: human beta-2 adrenergic receptor agonism by FAP. P07550. Am2.2-beta2AR cells, FAP receptor internalization, flow cytometry; reference of the scale not given here. response, % (no concentration beside the values). 340,000 tested, 0.43% active. AID 504454;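 active = response above a set limit, near 3 SD of response in nonfluorescent compounds, cut at about 42% in these data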;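 note: stock transfer was 100 nL into about 11 µL; a reference agonist was the positive control; negative values mostly stem from fluorescent compounds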
Target sequence (P07550 whole entry, looked up): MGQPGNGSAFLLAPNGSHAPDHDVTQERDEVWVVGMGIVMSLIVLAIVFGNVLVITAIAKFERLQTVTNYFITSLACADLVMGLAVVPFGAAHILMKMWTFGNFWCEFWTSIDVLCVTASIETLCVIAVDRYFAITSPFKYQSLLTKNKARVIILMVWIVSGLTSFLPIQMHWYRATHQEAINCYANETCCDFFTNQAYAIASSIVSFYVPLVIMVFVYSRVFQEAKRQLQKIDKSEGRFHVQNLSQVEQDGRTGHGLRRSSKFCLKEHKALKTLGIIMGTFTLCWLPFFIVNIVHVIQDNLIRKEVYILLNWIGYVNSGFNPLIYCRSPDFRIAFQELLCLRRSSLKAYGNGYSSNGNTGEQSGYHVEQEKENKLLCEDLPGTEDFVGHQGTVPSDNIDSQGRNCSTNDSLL
HNF4A DNA FP: change in binding of human HNF4 alpha to DNA; P41235; HNF4a-FITC DNA binding, fluorescence polarization, 1 h; activity change, % at 10 µM; 360,000 tested, 0.3% active; AID 1224865; in the data active = activity change above about 30%, passing the limit was not always enough;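 note: controls were the assay level and a saturating level of protein; the project sought stronger binding though the title names inhibitors; some compounds called inactive have numbers as strong as hits; positive values seem to mean higher polarization but the record does not say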
rRNA inh HTS OD600: second read-out of rRNA inh HTS, no call of its own (marks repeat the call); OD600 change, %; measured here: OD600 growth;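 optical density of the mix in the first replicate; 0 = DMSO median and -100 = no signal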
rRNA inh HTS RFP: also measured in rRNA inh HTS; calls as there; RFP signal change, %; measured here: RFP humanized mutant strains;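 first replicate; 0 = DMSO median and -100 = no signal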
The depositor's hits bear a star; i = inactive; / = no result given; & = joins results of further samples. A portion of the library, so the mix of outcomes need not match the whole.

SMILES	Ecoli growth	FGF22 binding	UCH37 inh	rRNA inh HTS	rRNA inh HTS OD600	rRNA inh HTS RFP	ALR inh	B2AR ag	HNF4A DNA FP
Cc1ccccc1NC(=S)N(CCN1CCCCC1)Cc1ccco1	0.66	/	2.6	6	9	0.5	-16	4	-0.1
CCC(C)[C@H]1COCCS(=O)(=O)N1Cc1ccccc1F (stereo partly specified)	/	i	1.4	1	2	5.1	1	0	-1.1
CCN1CCN(CC2COc3ccccc3O2)CC1 (stereo unspecified)	0.68	i	-0.2	19	15	1.0	-5	-5	1.2
O=S(=O)(c1ccc(Cl)cc1)N1CCC2(CC1)OCCO2	0.69	i	2.9	5	13	-2.3	-2	-4	0.5
COCCNC(=O)CSc1n[nH]c(=O)n1CCc1ccccc1	0.63	i	-0.4	12	12	3.3	-1	-4	4.1
Cc1ccc(CS(=O)(=O)CCC(=O)NCc2cccs2)cc1	0.66	/	2.0	/	/	/	0	6	0.5
Cn1nnc2cc(C(=O)Nc3ccccc3)ccc21	0.63	/	3.8	14	8	4.3	3	-7	1.9
O=C1CN(C(=O)c2ccccc2C(=O)O)c2ccccc2N1	0.65	i	-6.1	7	7	-0.5	/	15	7.3
COc1ccc(C(CNC(=O)C(C)Oc2ccc(Br)cc2)N2CCCCC2)cc1 (stereo unspecified)	0.69	i	0.2	-4	-11	0.8	-3	4	1.5
C[N+](C)(C)CCOC(=O)C1(c2ccccc2)CCCC1	0.75	/	-1.3	/	/	/	-10	-5	4.2
CNC(=O)N1CCC(C(=O)c2c(C)c(C)c(C)c(C)c2C)CC1	0.66	i	0.2	4	0	2.2	-1	-4	4.6
Clc1cccc(N=NN2CCOCC2)c1Cl	0.67	i	4.5	-8	-12	-2.4	/	8	0.2
O=C(O)CNC(=O)/C(=C/c1cccc([N+](=O)[O-])c1)NC(=O)c1ccco1	0.67	i	-10	0	7	0.0	5	0	-4.4
COc1cccc(NC(=O)CN(C)C(=O)c2c(-c3ccccc3)noc2C)c1	0.69	i	-0.6	-1	0	4.7	-1	-4	1.5
CC(C)CNc1nc(Oc2ccc(=O)n(-c3ccccc3)n2)nc(N2CCOCC2)n1	0.76	/	5.7	/	/	/	4	-1	2.2
O=C(Nc1ccc(C(F)(F)F)cc1)c1cccc(-n2cnnn2)c1	0.61	i	1.5	-25*	-17*	-9.0*	-6	10	4.2
O=C1CC/C=C\C[C@@H](CC(=O)N(CCO)Cc2ccccc2)C(=O)N[C@H](Cc2ccccc2)CO1	/	i	2.1	2	8	-2.5	-34	-12	2.4
Cc1cc(C)n2nc(-c3cccnc3)nc2n1	0.81	/	-1.2	/	/	/	-1	-5	2.2
CN1CCN(CCCCOc2ccc(F)cc2)CC1	0.66	/	-0.7	/	/	/	-13	-2	5.9
CCOc1ccc(NC(=O)Cn2nc(-c3ccccc3Cl)n(CC)c2=S)cc1	0.71	/	-0.2	/	/	/	-2	4	-2.5
O=C(CN1CCC2(CC1)OCCO2)c1ccc2cc[nH]c2c1	0.64	/	-45	/	/	/	-25	-2	1.1
Cc1ccc(CNC(=O)c2ccc(Cl)c(S(N)(=O)=O)c2)n1C	0.7	i	3.8	11	15	0.7	-18	-5	-3.3
O=C(c1ccco1)N1CCC(n2nnc3ccccc32)CC1	0.7	/	2.6	/	/	/	/	0	3.6
CC(NC(=O)COc1ccc(S(=O)(=O)N2CCOCC2)cc1)c1ccccc1 (stereo unspecified)	0.7	i	1.2	3	8	-2.1	/	1	-1.5
C=CCn1ccc2c([N+](=O)[O-])cccc2c1=O	0.7	i	4.3	6	-2	1.3	-3	1	-2.6
Next part
SMILES	Ecoli growth	FGF22 binding	UCH37 inh	rRNA inh HTS	rRNA inh HTS OD600	rRNA inh HTS RFP	ALR inh	B2AR ag	HNF4A DNA FP
CCc1ccccc1N1CC23C=CC(O2)C(C(=O)O)C3C1=O (stereo unspecified)	0.74	i	1.0	10	15	-0.2	-15	5	2.4
COc1cc(CC(=O)N/N=C/c2ccc([N+](=O)[O-])cc2)c([N+](=O)[O-])cc1OC	/	i	/	/	/	/	/	2	3.1
Cc1nn(C)cc1C(C)NCc1c(C(=O)N2CCCCCCC2)nc2ccc(Cl)cn12 (stereo unspecified)	0.73	i	0.1	6	6	-3.3	-2	3	-2.3
CCc1ccc2c(c1)C(c1cccs1)=NNC(c1cccnc1)=N2	0.72	/	4.2	/	/	/	2	-17	3.4
O=C(CCN1C(=O)C2C3C=CC(C4CC34)C2C1=O)OCC(=O)c1ccccc1 (stereo unspecified)	0.7	i	3.2	/	/	/	-6	-9	1.1
COC(=O)c1cc(OC)c(OC)c(OC)c1[N+](=O)[O-]	0.63	i	6.1	7	7	-0.2	-10	14	-1.4
CCCC1(C)Nc2ccccc2-c2nc3ccccc3n21 (stereo unspecified)	0.71	/	i	/	/	/	42	-3	-2.0
CC[C@@H](C)[C@H](NC(=O)OC(C)(C)C)c1nnc(S(=O)(=O)Cc2cc(C)ccc2C)o1	0.69	/	-0.8	/	/	/	35	11	0.6
CCCC(C)C(=O)Nc1ccc2c(c1)OCCO2 (stereo unspecified)	0.72	/	2.1	/	/	/	/	-4	0.5
COc1cccc(N(C(=O)Cn2nnc(-c3ccc(C)o3)n2)C(C(=O)NC(C)(C)C)c2cccs2)c1 (stereo unspecified)	0.75	/	5.8	/	/	/	/	3	1.0
OCCOCCNc1ncnc2nc[nH]c12	0.76	i	4.7	12	-4	-0.1	24	-12	2.2
Cc1ccc(/C=C2\SC(=S)N(CCCC(=O)Nc3ccc(O)cc3)C2=O)cc1	0.69	i	3.2	4	18	2.7	/	4	3.2
CC1CC(C)CN(C(=O)CSc2nnc(CSc3ncccn3)n2C)C1 (stereo unspecified)	0.73	/	0.1	/	/	/	-2	12	-0.2
CCN(CC(=O)N1CCN(Cc2ccccc2)CC1)S(=O)(=O)c1ccc(C)cc1	0.7	i	-2.0	-1	-7	1.2	-7	-7	-1.1
CCO[C@H]1OC(C(=O)N2CCN(Cc3ccc4c(c3)OCO4)CC2)=C[C@@H](C2CCCCC2)[C@@H]1CCCO	/	i	1.6	-30	-64	-12	-18	-4	0.9
O=C(COC(=O)c1cc(S(=O)(=O)N2CCCCC2)ccc1Cl)NC1CCCCC1	/	i	/	-5	-10	0.6	/	/	26
O=C(Nc1nnc(SCc2ccc(F)cc2)s1)c1cccnc1Cl	0.64	i	0.9	-25	-20	-12	69	6	8.3
O=C(N1CCOCC1)N(Cc1ccccc1)c1ccccn1	0.74	/	-1.8	/	/	/	2	-3	-0.4
CCC(C)C(=O)Nc1ccccc1N1CCN(c2ccc(F)cc2)CC1 (stereo unspecified)	0.65	i	0.5	-18	-23	-1.1	-4	3	1.9
Cc1ccc(S(=O)(=O)N2C3CCCCC3O[C@H]2CC(=O)c2ccc(F)cc2)cc1 (stereo partly specified)	/	i	/	-3	1	-2.2	/	/	-0.4
CCc1cc(S(N)(=O)=O)cc(CC)c1NC(C)=O	0.7	i	0.3	11	-14	-4.3	1	-10	0.3
COc1ccc(-c2ccc3nnc(SCC(N)=O)n3n2)cc1	0.65	i	-90	-1	0	-7.2	0	-3	-5.7
COc1cc(C(=O)N2CCN(CC(O)COc3ccccc3)CC2)cc(OC)c1OC (stereo unspecified)	0.68	i	2.3	4	-15	-2.0	/	-3	2.0
CCCCn1c(N)c(N(CCOC)C(=O)c2cc(CC)c(C)s2)c(=O)[nH]c1=O	0.68	i	-5.5	-2	7	-0.5	-10	0	3.6
CCN1CCN(C(=S)Nc2cccc(Cl)c2)CC1	0.65	i	2.4	8	12	2.6	-3	5	1.0

Complete entries, looked up by structure:
Cc1ccccc1NC(=S)N(CCN1CCCCC1)Cc1ccco1 as listed: Ecoli growth = 0.66; FGF22 binding = /; UCH37 inh = 2.6; rRNA inh HTS = 6; rRNA inh HTS OD600 = 9; rRNA inh HTS RFP = 0.5; ALR inh = -16; B2AR ag = 4; HNF4A DNA FP = -0.1
O=C(CN1CCC2(CC1)OCCO2)c1ccc2cc[nH]c2c1 as listed: Ecoli growth = 0.64; FGF22 binding = /; UCH37 inh = -45; rRNA inh HTS = /; rRNA inh HTS OD600 = /; rRNA inh HTS RFP = /; ALR inh = -25; B2AR ag = -2; HNF4A DNA FP = 1.1

The list goes on.
SMILES	Ecoli growth	FGF22 binding	UCH37 inh	rRNA inh HTS	rRNA inh HTS OD600	rRNA inh HTS RFP	ALR inh	B2AR ag	HNF4A DNA FP
C#CCOCCOCCOCCNc1nc(N2CCN(C(=O)[C@H](CCC(=O)O)n3cc(C(N)CC(C)C)nn3)CC2)nc(N2CCN(C(=O)[C@H](Cc3cc4ccccc4[nH]3)n3cc(C(N)[C@H](C)CC)nn3)CC2)n1 (stereo partly specified)	/	/	-0.9	/	/	/	-7	-2	/
CSc1ccccc1OCc1cc(C(=O)N2C[C@H]3CC[C@H]2C3)no1	0.67	i	0.2	-10	-20	1.1	-8	-3	-0.7
C=C(C)CSc1nnc2n(C)c(=O)c3c4c(sc3n12)CCC4	0.68	/	5.7	/	/	/	4	-4	2.7
C=CCn1c(SCC(=O)Nc2c(C)n(C)n(-c3ccccc3)c2=O)nnc1-c1cccnc1	0.69	i	3.7	10	8	-0.9	-5	11	-0.6
Cc1cccc2cc(CN(Cc3ccco3)C(=O)c3cccs3)c(=O)[nH]c12	0.67	/	0.0	/	/	/	5	-6	-1.8
Cc1ccc(OC(=O)N(C)C[C@@H]2OCc3cn(nn3)CCCC(=O)N([C@H](C)CO)C[C@H]2C)cc1	/	i	/	-1&2	16&1	1.3&-2.5	/	/	0.7
CCn1c(SCC(=O)N(C)CC(=O)Nc2ccc(F)c(F)c2F)nnc1-c1ccco1	0.7	i	4.3	-6	1	8.5	-1	-12	-0.3
COc1ccc(N(CC(=O)N/N=C/c2ccco2)S(=O)(=O)c2ccccc2)cc1Cl	/	i	/	6	2	2.7	-6	-3	-3.6
Cc1ccc(C2=CC(=O)C[C@H](c3ccc(F)cc3)C2)cc1	/	i	-0.2	-25	-43	-20	-6	-4	1.0
CCN1CCN(CCCN(Cc2cccs2)C(=S)Nc2ccccc2C)CC1	0.7	/	4.1	5	15	1.9	-3	0	-1.5
Cc1ccc(Sc2c(O)c3ccccc3n(C)c2=O)cc1	0.71	i	2.2	2	-5	-5.2	/	-4	-1.8
C[C@@H]1CN([C@@H](C)CO)C(=O)Cc2cc(NS(=O)(=O)c3ccccc3)ccc2O[C@H]1CN(C)S(C)(=O)=O	0.76	i	1.4	18&4	10&4	0.3&-2.0	-3	-1	-1.5
O=C(Nc1ccc(Nc2ccccc2)cc1)c1ccccc1	0.64	i	6.4	1	7	-5.4	90*	5	/
Cc1ccc(C)c(-n2c3nc(=O)[nH]c(=O)c-3cc3cc([N+](=O)[O-])ccc32)c1	0.69	i	1.6	9	16	3.6	-13	15	-18
Fc1ccc(C2=CSC3=NCCN23)cc1	0.72	i	4.8	23	18	2.6	17	-5	0.9
CCn1cc(C(=O)NCc2ccco2)c(=O)c2ccc(C)nc21	0.69	i	1.9	6	5	-0.3	26	-1	2.5
COc1ccc(C(=O)OCCc2ccc(O)cc2)cc1	0.69	i	0.0	-21	-39	-15	32	11	3.4
NC(=O)Cn1c2[n+](c3ccccc31)CC(O)CS2 (stereo unspecified)	0.72	/	5.1	/	/	/	-9	1	-2.4

Of the compounds above, these contain a tert-butyl group.
SMILES	Ecoli growth	FGF22 binding	UCH37 inh	rRNA inh HTS	rRNA inh HTS OD600	rRNA inh HTS RFP	ALR inh	B2AR ag	HNF4A DNA FP
CC[C@@H](C)[C@H](NC(=O)OC(C)(C)C)c1nnc(S(=O)(=O)Cc2cc(C)ccc2C)o1	0.69	/	-0.8	/	/	/	35	11	0.6
COc1cccc(N(C(=O)Cn2nnc(-c3ccc(C)o3)n2)C(C(=O)NC(C)(C)C)c2cccs2)c1 (stereo unspecified)	0.75	/	5.8	/	/	/	/	3	1.0

Screens: PubChem BioAssay, several laboratories
